Bioassay records: PubChem BioAssay, National Center for Advancing Translational Sciences (NCATS)
Menin MLL FP FL – inhibitors of human menin-MLL interaction, wild-type MLL peptide; FP activity change, % at 61.4 µM; 290,000 tested, under 10 active; Fluorescence polarization, fluorescein-MLL peptide displacement from menin; inconclusive = falling polarisation curve, or a change in total fluorescence; inactive = total fluorescence flat and polarisation flat or rising; no compound was filed as active; the % refers to the polarisation; negative = inhibition;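 further: % of control where 0% means no effect; inhibitors lower the polarisation; unlabelled MLL peptide was the positive control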
Sfp PPTase inh – Sfp phosphopantetheinyl transferase inhibition; Q9F4F7; Biochemical Sfp PPTase activity, qHTS; Potency, µM, inactives show max response, negative = inhibition, hits mostly inhibitors; 310,000 tested, 3.5% active; AID 1490; active means well fitted inhibition curve with a large enough effect; inconclusive means small, poorly fitted or top-dose-only effect, or another doubt; inactive means no such curve, though single readings can be large or run the other way;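 further: the enzyme is Sfp with the accession as filed and its product quenches rhodamine fluorescence; potency means the concentration at half of the fitted maximal effect; 0% = enzyme reaction without inhibitor and -100% = no enzyme wells; top concentration of the series not given in the record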
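Fluorescence-quenching assay: 15 nM Sfp-PPTase preincubated 15 min at room temperature with compound, then 5 uM rhodamine-CoA and 12.5 uM BHQ-2-labelled YbbR peptide added. Fluorescence (ex 525/em 598 nm) read at start and after 30 min; difference gives rate.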
PINK1 expr mod – PINK1 expression modulation. PINK1 immunofluorescence, high-content cytometry, 24 h. Potency, µM (highest dose often 76.6 µM), for the others: top-dose activation (PINK1 increase), hits mostly activators. 410,000 tested, 0.2% active. AID 624263; active = well fitted activation curve with a large enough effect; inconclusive = small, poorly fitted or top-dose-only effect; inactive = flat fitted curve, though single readings scatter; cell line not stated here;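 further: potency means the concentration at half of the fitted maximal effect; % of control where 0% means no effect; nearly all actives have a fitted effect of over 65% in size; a mitochondrial uncoupler was the plate control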
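Cells are seeded, rested 12 hours, then given compound at five concentrations or DMSO for 24 hours. After fixation, blocking and antibody staining, PINK1 amount and mitochondrial localization are scored; CCCP serves as control.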
Active calls of the source: *; ? = inconclusive; / = not tested or not shown; & = joins results of further samples; [ ] = remark or other dose.

Structure | Sfp PPTase inh | Menin MLL FP FL | PINK1 expr mod
COC(=O)C1=C(C(=O)OC)[C@@H]2N(Cc3ccccc3)c3ccccc3[C@@]23C[C@@H](C(=O)OC)N(S(=O)(=O)c2ccc(Br)cc2)C3=N1 | 0% | 0.6[11.7 µM] | /
Cc1nc2c3c(-c4ccccc4)c(-c4ccccc4)oc3ncn2n1 | 3% | 3.1 | /
O=C(O)c1cc2cc(Cc3cccnc3)ccc2o1 | 40% | ? | /
O=C(CSc1nnc(-c2ccc(Cl)s2)o1)N1CCc2ccccc21 | 16% | -1.6 | /
CO[C@H]1COC(=O)C/C=C\[C@H](C)[C@@H](OC)COC(=O)C/C=C\[C@@H]1C | 13% | 0.5[11.7 µM] | /
CCOC(=O)c1[nH]c2ccc(OC)cc2c1NC(=O)C(C)N1CCC2(CC1)OCCO2 (stereo not given) | -4% | 1.6 | /
Cc1noc(C)c1S(=O)(=O)Nc1ccc(C(=O)N2CCC(C)CC2)cc1 | 24% | -2.6 | /
COC(=O)[C@H](Cc1ccccc1)NC(=O)O[C@@H]1C(=O)c2cc(Br)ccc2O[C@H]1c1ccc2c(c1)OCO2 | 1% | 30 | /
O=c1c(O)c(-c2ccc(O)c(O)c2)oc2c(OC3OC(CO)C(O)C(O)C3O)c(O)cc(O)c12 (stereo not given) | -59% | 0.4 | /
C[C@@H](C1[C@@H](O)CC2C3C=CC4C[C@@H](O)CC[C@]4(C)[C@H]3CC[C@@]21C)[C@@H]1CCCCN1 (stereo not given in full) | 4% | 0.0 | /
CC(C)[C@@H](CC(=O)N[C@@H]1CCCC[C@H]1C(=O)N[C@H](CC(=O)N[C@@H](CCC(=O)O)CC(=O)O)Cc1c[nH]c2ccccc12)NC(=O)C[C@H](Cc1c[nH]c2ccccc12)NC(=O)[C@@H]1CCCC[C@H]1N | -5% | -1.8 | /
Cc1ccc(-n2nc(C)c(C3C(C#N)=C(N)OC4=C3C(=O)CC(C)(C)C4)c2Cl)cc1 (stereo not given) | 8% | 3.3 | /
N[C@H](C(=O)O)c1ccc(C(=O)O)c(O)c1 | -28%&15% | ? | /
C[C@@H]1Oc2ccccc2C=C1/C=C/C(=O)O | -15% | 1.4 | /
c1ccc2nc(C3=NCCN3)cnc2c1 | 3% | -6.8 | /
COC(=O)C1C2CC3c4[nH]c5cc(OC)ccc5c4CCN3CC2CC(OC(=O)c2cc(OC)c(OC)c(OC)c2)C1OC (stereo not given) | -19%&-7% | ? | /
Cc1ccc2c(=O)c3cccc(CC(=O)O)c3oc2c1C | -8% | -0.4 | /
CCCCC/C=C\C/C=C\C/C=C\C=C\[C@@H](O)CCCC(=O)O | 5%&-24% | -4.4 | /
Fc1ccc2[nH]c3c(N4CCN(C5CCCCC5)CC4)ncnc3c2c1 | 2% | 3.6 | /
CCc1ccc(NC(=O)c2ccc3ncsc3c2)cc1 | 15% | -0.1 | /
CC[C@H](C)[C@H](N)C(=O)N[C@@H](CCCCN)C(=O)N[C@H](C(=O)N[C@@H](C)C(=O)N[C@H](C(=O)O)C(C)C)C(C)C | 0% | -0.8 | /
CC(=O)OCCCN1C(=O)c2cccc3cc(Br)cc(c23)C1=O | -4% | -1.3 | /
Cc1cc(-c2ccccc2)nc(N2CCC(C(=O)NCc3ccccc3Cl)CC2)n1 | 0% | 1.7 | /
C/C(=N\O)C1CCCCC1 | 10% | 10 | /
CC1COc2ccccc2C1=O (stereo not given) | 9% | -0.6 | /
CCCCC(=O)O[C@]1(C(=O)CO)CCC2C3CCC4=CC(=O)CCC4(C)C3C(O)CC21C (stereo not given in full) | 17% | -0.5 | /
Cc1c(-c2cc[n+]([O-])cc2)oc2ccc(Br)cc2c1=O | 8% | 3.1 | /
CCCCCCCCCCCCC/C=C/[C@@H](O)[C@H](CO)N(C)C | 15%&-16% | 3.4 | /
CCOC(=O)C1=NO[C@@]2(C=C(Br)C(=O)[C@H]3O[C@H]32)C1 | 32µM* | 1.0 | /
COC(=O)C1=NOC2(C=C(Br)C(OC)=C(Br)C2=O)C1 (stereo not given) | 0.79µM* | -3.2[11.7 µM] | /
O.O.O.O=S(=O)([O-])OC[C@H]1O[C@@H](O[C@]2(COS(=O)(=O)[O-])O[C@H](OS(=O)(=O)[O-])[C@@H](OS(=O)(=O)[O-])[C@@H]2OS(=O)(=O)[O-])[C@H](OS(=O)(=O)[O-])[C@@H](OS(=O)(=O)[O-])[C@@H]1OS(=O)(=O)[O-].[Al] | -22% | 1.5 | /
O=C(c1ccc(F)cc1)C1CCN(CCn2c(=S)[nH]c3ccccc3c2=O)CC1 | -2%&-4% | 8.3&-18 | /
CC(C)CN1CCc2nc(-c3ccccc3)c3c(c2C1)COC(C)C3 (stereo not given) | -10% | -2.9[11.7 µM] | /
COc1ccc2c3c(c(=O)oc2c1)C1O[C@](c2ccsc2)(Cc2ccccc21)O3 | -5% | 18[11.7 µM] | /
COc1cc(OC)cc(OC)c1 | 19% | -0.6 | /
CCN(CC)CCN1C(=O)C(=O)/C(=C(/O)c2cnn(-c3ccccc3)c2C)C1c1cccs1 (stereo not given) | -8% | 4.5 | /
C/C(CCC(=O)OC[C@@H]1O[C@H](C#Cc2ccccc2)C=C[C@@H]1Oc1ccc(C)cc1)=N/O[C@@H](C)CN1CCCCc2nc(C)c(C)cc21 | 8% | -4.8[11.7 µM] | /
COc1ccc2c(c1)C(c1cc(OC)c(OC)c(OC)c1)CC(=O)O2 (stereo not given) | -1% | -1.4[94.6 µM] | /
CC(CCC(=O)O)C1CCC2C3CC[C@H]4CC(O)CC[C@@]4(C)C3CC(O)[C@]12C (stereo not given in full) | 16% | 2.2 | /
CC(C)(C)C(=O)OCC(=O)C1CCC2C3CCC4=CC(=O)CCC4(C)C3CCC12C (stereo not given) | 8% | -4.6 | /
CC(C)c1ccc(Cn2ccc3c4c(N)nc(NC5CC5)nc4ccc32)cc1 | 5µM* | ? | /
Cc1ccc2c(c1)sc1ncc(NC(=O)c3ccc(F)cc3)c(=O)n12 | 8% | -0.5 | /
CCN1CCN(C2CC(=O)NC2=O)CC1 (stereo not given) | 7% | -4.0 | /
COc1ccc(CC(NC(C)=O)C(=O)NC2CCN(c3c(Cc4ccccc4)c(C)nc4ncnn34)CC2)cc1OC (stereo not given) | 6% | 4.9 | /
NCCCCC(NC(CCc1ccccc1)C(=O)O)C(=O)N1CCCC1C(=O)O (stereo not given) | -7% | -1.3 | /
Cc1cccc(C(=O)Nc2ccc(C)c(OC(=O)c3cccc(C)c3)c2)c1 | 7% | -1.2 | /
Cc1nn(-c2ccccn2)c2c1C(c1ccccn1)C1=C(CCCC1=O)N2 (stereo not given) | -8% | 2.4 | /
Cc1cc(O)c(C=O)c2c1C(=O)Oc1c(COC(=O)/C=C/C(=O)O)c(O)c(C(=O)O)c(C)c1O2 | -52% | ? | /
CC(=O)OCC(NC(=O)C(COCc1ccccc1)NC(=O)OC(C)(C)C)C1OC(n2cc(F)c(=O)[nH]c2=O)C(OC(C)=O)C1OC(C)=O (stereo not given) | 9% | -0.6 | /
O=C1C[C@@H](O)[C@@H](O)[C@@H]2[C@H]3C(=O)N(c4ccc(F)cc4F)C(=O)[C@@H]3CC[C@@H]12 | 25% | 2.2[11.7 µM] | /

Continuation.
Structure | Sfp PPTase inh | Menin MLL FP FL | PINK1 expr mod
O[C@@H]1CO[C@H]2[C@@H]1OC[C@@H]2O | 21% | 2.9 | /
CNC(=O)[C@H](C)[C@H]1C[C@]1(C)[C@H](NC(=O)OCc1ccccc1)c1ccccc1 | 16% | -4.0 | /
CC(C)CO/N=C1/C[C@@H](O)[C@@H](O)[C@@H]2[C@@H]3C(=O)N(C[C@@H]4CCCO4)C(=O)[C@H]3CC[C@H]12 | 0% | -5.5[11.7 µM] | /
Cc1ccc2occ(CN3CCN(Cc4ccccc4)CC3)c(=O)c2c1 | -12% | -2.6 | /
COc1ccc(C2=Nn3c(nnc3-c3ccccc3O)SC2)cc1 | -12% | -4.1 | /
CCCCN1C(=O)/C(=C/C=C2\N(C)c3ccccc3C2(C)C)SC1=S | -10% | ? | /
COc1ccc(OC)c(C2=Nn3c(nnc3-c3ccccc3C)SC2)c1 | ? | ? | /
O=C1[C@H]2[C@H]3[C@H](O)[C@H](O)C/C(=N\OC[C@@H](O)COCc4ccco4)[C@@H]3CC[C@H]2C(=O)N1c1ccc(F)cc1F | 3% | -0.9 | /
CC1(OC(=O)c2ccco2)C(=O)C=C2C=C(c3ccsc3)OC=C2C1=O (stereo not given) | -19% | ? | /
CO/N=C(/C)CCC(=O)OC[C@@H]1O[C@H](C#Cc2ccccc2)C=C[C@@H]1Oc1ccc(C)cc1 | ? | -2.0[11.7 µM] | /
NC(=O)CC[C@@H](N)C(=O)O | -8% | -2.7 | /
CC(C)CN1CCc2nc(-c3ccccc3)c3c(c2CC1)COC(C)C3 (stereo not given) | 27% | 5.8[11.7 µM] | /
O=[N+]([O-])c1cc(C=Nc2cccc3c(O)cccc23)ccc1Cl | -12% | -2.8 | /
COC(=O)[C@@]1(Cc2ccc(OC)cc2)[C@H]2c3cc(C(=O)N4CCCC4)n(CCc4c[nH]c5cc(F)ccc45)c3C[C@H]2CN1C(=O)c1ccccc1 | 22% | ? | /
CC(=O)Nc1ccn(C2OC(C(COC(C)=O)NC(=O)C(COCc3ccccc3)NC(=O)OC(C)(C)C)C(OC(C)=O)C2OC(C)=O)c(=O)n1 (stereo not given) | -2% | 1.3 | /
CC(=O)OCC1OC(c2cc(C)cc(C)c2)C=CC1OC(C)=O (stereo not given) | 10% | 0.0[11.7 µM] | /
CC(C)(C)OC(=O)NCCCC1=CC2=CC(=O)C(C)(O)C(=O)C2=CO1 (stereo not given) | -16% | 6.6 | /
N[C@H](COP(=O)(O)O)C(=O)O | -9% | 1.8 | /
C=CC[C@@H]1C=C[C@H](O/N=C(\C)CCN2CCCc3nc(C)c(C)cc32)[C@H](CO)O1 | 7% | 3.3[11.7 µM] | /
CC(=O)Nc1nc2c(c3c1c(=O)oc1ccccc13)CCCCC2 | -1% | 0.0 | /
O=S(=O)(NC1CCC(NS(=O)(=O)c2c(F)cccc2F)CC1)c1ccc2c(c1)OCCO2 (stereo not given) | / | / | -1.1%
COC(=O)[C@@H]1CCCN1C(=O)c1cnn(-c2ncc3c(n2)-c2ccccc2CCC3)c1C1CC1 | / | / | 2.8%
CC(=O)NC(c1cccs1)c1cc(Br)c2cccnc2c1O (stereo not given) | / | / | 0.5%
COc1ccc(CNc2ccc(N3CCN(C(C)=O)CC3)cc2)cc1OC | / | / | 1.8%
COc1ccccc1Nc1nc(NCCO)nc(N2CCCC2)n1 | / | / | 0.2%
COc1cc(-c2cnc3ccccc3c2)cc2c1OCCN(C(=O)Cn1nccc1C)C2 | / | / | -0.2%
Cc1cc2c(c(-c3ccc(Cl)cc3)c1)OC(CNC(=O)CCC(=O)N(C)C)C2 (stereo not given) | / | / | 0.8%
CC(=O)c1ccc(-c2ccc3c4c(ccc3c2)OC(CNC(=O)[C@@H]2CCCN2C(C)=O)C4)s1 (stereo not given in full) | / | / | 0.2%
O=C(c1ccc(Cn2cnnn2)cc1)N1CCOc2ccc(C(O)C3CCCCC3)cc2C1 (stereo not given) | / | / | 2.2%
O=C(c1cccnc1)C1CCCN(Cc2ccc3c(c2)CN(C(=O)c2ccc4[nH]ccc4c2)CCO3)C1 (stereo not given) | / | / | -0.3%
COc1cc(OC)c(OC)cc1CN1CCCC(c2nc(C)ncc2-c2ccc(F)cc2)C1 (stereo not given) | / | / | 0.9%
CCN(CC)/[N+]([O-])=N/OCOC(=O)c1ccccc1OC(C)=O | / | / | -0.5%
O=S(=O)(NCc1nnc2n1CCN(Cc1ccccc1Cl)CC2)c1ccccc1 | / | / | -0.1%
CCOP(=O)(OCC)c1ccc2ccc3ccccc3c(=O)c2c1 | / | / | 0.1%
CN(C)c1ccc(C(=O)N2CCCC(Cn3cc(C(=O)N4CCCC4)nn3)C2)cc1 (stereo not given) | / | / | 0.1%
COc1cccc(CNC(=O)c2c(OC)cc(=O)n3c2CCN(C(=O)c2ccc(Cl)cc2)CC3)c1 | / | / | 0.6%
CCn1c(-c2cccc(OC)c2)nc2cc(NC(C)=O)cc(C(=O)N3CCC[C@H]3C(=O)OC)c21 | / | / | 1.3%
COc1ccccc1CCNc1ncnc2sc(C(=O)N3CCCCC3)c(C)c12 | / | / | -0.5%
C[C@@H]1CN(Cc2ccc3c(c2)CN(Cc2nc(-c4ccccc4)cs2)CCO3)C[C@H](C)O1 | / | / | 0.1%

Only part of the results is shown (hit frequency here may not be typical).
